NPYLR7 ag = mosquito NPYLR7 agonism | activation, % at 10 µM | HEK293T NPYLR7/Galpha15, GCaMP6s calcium fluorescence | 0.15% of 270,000 active; in the data active means activation above about 40%;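 further: 0% = vehicle and 100% = reference agonist at the receptor; some compounds past the cut are filed as inactive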
NPYLR7 ag max-min = further read-out of NPYLR7 ag, marked with its call; activation, %; measured here: Max-Min RFU normalised activation; some inactives read as strong as hits;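 span of the calcium signal over five minutes; 0% = vehicle and 100% = native peptide agonist; compound fluorescence can raise it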
Active calls of the source: *. Some of the compounds tested; count on the stated rates, not on these rows.

SMILES | NPYLR7 ag | NPYLR7 ag max-min
O=C(c1ccccc1F)N(Cc1nccn1Cc1cccc(Cl)c1)C1CCCCC1 | 3 | 10
Cc1ccc(S(=O)(=O)NC(=O)C2(C)CCN2C(=O)COc2ccc(Cl)cc2)cc1 (stereo unspecified) | 3 | -1
Cc1ccc(S(=O)(=O)NCc2ccc3c(c2)OCCO3)cc1C | 5 | 0
CCN1CCN(c2ccc(NC(=O)c3sccc3C)c(C)c2)CC1 | 3 | 2
O=C(CCc1nc2ccccc2[nH]1)N1CCc2c(ncnc2N2CCOCC2)C1 | 9 | 4
Clc1ccc(C2CN(CCCn3ccnc3)CCO2)cc1 (stereo unspecified) | 10 | 24
Cc1ccc(-c2cnc(CCC(=O)N3CCc4ccccc4C3)o2)cc1C | -8 | -10
COCC(C)(NC(=O)Cc1ccc(Cl)cc1Cl)C(=O)OC (stereo unspecified) | 0 | 1
CN1CC2N(Cc3ccc(F)cc3)C3CCC2(CC3)OC1=O (stereo unspecified) | 23 | 30
CC(C)CN(Cc1cccn1Cc1ccccc1Cl)C(=O)CN(CC(C)C)C(=O)C(C)Cl (stereo unspecified) | 0 | 14
COc1cccc(C(=O)N(Cc2nccn2Cc2ccc(Cl)c(Cl)c2)CC2CCCO2)c1 (stereo unspecified) | -18 | -14
CC1CC(C)CN(CCCNC(=O)c2ccnc(N3CCOC(C)C3)c2)C1 (stereo unspecified) | 12 | 9
CCC1=NN2CCS(=O)(=O)N=C2S1 | 6 | 4
CCCCN(CC(=O)Nc1cc(-c2ccccc2)nn1-c1ccc(C)cc1)S(=O)(=O)c1ccc(Cl)cc1 | 0 | 12
Fc1ccc2nc(C3CCCCN3Cc3nnc(-c4ccco4)o3)[nH]c2c1 (stereo unspecified) | 7 | 8
COc1cc(OC)c(OC)cc1C=C1N=C(c2ccccc2I)OC1=O | -4 | -14
CC(=O)N1CCCc2ccc(S(=O)(=O)NCC3CC=CCC3)cc21 (stereo unspecified) | 7 | -16
O=C(CCC1CCN(C2Cc3ccccc3C2)CC1)NC1CCN(Cc2ccccc2)C1 (stereo unspecified) | -4 | -6
CCOC(=O)c1c(NC(=O)c2ccc(OC)cc2)sc(C(=O)Nc2ccccc2C(F)(F)F)c1C | -6 | -2
Cc1nc(N(C)C)nc(N2CCN(Cc3cnn(C)c3C3CC3)CC2)c1C | -3 | -6

Reformatted with two lines to a compound: entries from further up
Results follow in this order: NPYLR7 ag, NPYLR7 ag max-min
> Clc1ccc(C2CN(CCCn3ccnc3)CCO2)cc1 (stereo unspecified)
→ 10, 24
> Cc1ccc(-c2cnc(CCC(=O)N3CCc4ccccc4C3)o2)cc1C
→ -8, -10
> COCC(C)(NC(=O)Cc1ccc(Cl)cc1Cl)C(=O)OC (stereo unspecified)
→ 0, 1
> CN1CC2N(Cc3ccc(F)cc3)C3CCC2(CC3)OC1=O (stereo unspecified)
→ 23, 30
> CC(C)CN(Cc1cccn1Cc1ccccc1Cl)C(=O)CN(CC(C)C)C(=O)C(C)Cl (stereo unspecified)
→ 0, 14
> COc1cccc(C(=O)N(Cc2nccn2Cc2ccc(Cl)c(Cl)c2)CC2CCCO2)c1 (stereo unspecified)
→ -18, -14
> CC1CC(C)CN(CCCNC(=O)c2ccnc(N3CCOC(C)C3)c2)C1 (stereo unspecified)
→ 12, 9

(listing goes on)
SMILES | NPYLR7 ag | NPYLR7 ag max-min
Cc1nc(N2CC(C)OC(C)C2)nc(NCc2ccccc2)c1[N+](=O)[O-] (stereo unspecified) | 0 | -4
Cn1ncc2c(N(Cc3ccc(F)cc3F)C3CC3)ncnc21 | 3 | 1
CCc1nc(C)c(C(=O)N(C)Cc2ccc3nsnc3c2)o1 | 4 | 1
O=C(Nc1ccc(Br)cc1)N1CCSC1c1cccs1 (stereo unspecified) | 23 | 37
CCc1cccc(NC(=O)Nc2ccc(N3CCN(c4ccccc4OC)CC3)c(C(=O)NCCCOC)c2)c1 | 17 | 14
Cc1c(N=Cc2ccc(O)cc2O)c(=O)n(-c2ccccc2)n1C | -6 | -10
CCCn1cc(C(=O)N2CCc3ccccc3C2)c2nn(-c3ccccc3)c(=O)c-2c1 | 6 | 4
COc1cccc(C(=O)N(CCC(C)C)Cc2c(-c3ccccc3)noc2N2CCN(C)CC2)c1 | 9 | 13
CN=c1scc(-c2ccc(F)cc2)n1N=Cc1ccc2c(c1)OCO2 | 0 | -7
COc1ccc(N2CC(C(=O)Nc3cc(C)nn3-c3nc4c(c(=O)[nH]3)CCC4)CC2=O)cc1 (stereo unspecified) | 11 | 6
O=c1oc2ccccc2cc1-c1nc2ccccc2c(=O)[nH]1 | -3 | -1
O=C(CCN1C(=O)c2ccccc2C1=O)NCCC1=CCCCC1 | 2 | 2
Cc1ncc(C)c(N2CCC(C3(Cc4ccc(F)cc4)NC(=O)NC3=O)CC2)n1 (stereo unspecified) | -6 | -8
CCCn1cc(C(=O)N2CCC(O)(c3ccc(C)cn3)CC2)c(C)n1 | 0 | 1
COC(=O)C(c1ccccc1)C1C=CC(NC(=O)c2cccc(OC(F)(F)F)c2)C1 (stereo unspecified) | 0 | -7
COCCNCc1ccc(OS(C)(=O)=O)cc1 | -2 | -6
COCCN(Cc1cccn1C)C(=O)CN(CC(C)C)C(=O)Nc1ccc(Cl)cc1 | 0 | 12
CNC(=O)c1cccc(-c2cc(C3(CNCc4ccc(F)cc4)CC3)ccn2)c1 | -10 | -6
N#Cc1nc(Cl)c(Cl)c(N)c1Cl | 1 | 0
NC(=O)c1ccc(Nc2cc3[nH]c(-c4cccc(F)c4)cc3cn2)cc1 | 8 | 19
Cc1ccc2nc(SCC(=O)N3CCC(C)CC3)nc(=O)n2c1 | 1 | 0

Entries of single compounds, quoted from the list.
`CCCn1cc(C(=O)N2CCc3ccccc3C2)c2nn(-c3ccccc3)c(=O)c-2c1` in the list: NPYLR7 ag = 6; NPYLR7 ag max-min = 4
`CCc1nc(C)c(C(=O)N(C)Cc2ccc3nsnc3c2)o1` in the list: NPYLR7 ag = 4; NPYLR7 ag max-min = 1

A draw from above in order of formula weight, descending:
SMILES | NPYLR7 ag | NPYLR7 ag max-min
CCCn1cc(C(=O)N2CCc3ccccc3C2)c2nn(-c3ccccc3)c(=O)c-2c1 | 6 | 4
NC(=O)c1ccc(Nc2cc3[nH]c(-c4cccc(F)c4)cc3cn2)cc1 | 8 | 19
Cn1ncc2c(N(Cc3ccc(F)cc3F)C3CC3)ncnc21 | 3 | 1
